NS1 inh = blocks influenza NS1 protein function. S. cerevisiae slowed by influenza A NS1, growth recovery by OD600. Potency, µM (titrated, usually from 46.1 µM), for the others: top-dose activity, positive = more growth. hit rate 0.4% among 270,000; active means well fitted rising curve with a large enough effect; inconclusive means small, poorly fitted or top-dose-only effect; inactive means no such curve, though single readings can be large or run the other way; further: nearly all actives have a fitted effect of over 50% in size
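OD600 was taken as the measure of yeast growth restored by compound in an NS1-expressing S. cerevisiae strain. Cells had been washed out of glucose medium and diluted 1:100 into galactose -URA medium, pH 6.0.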
StopGo reporter = FMDV 2A StopGo reporter, luciferase signal; AID 1159524; hit rate 1.2% among 410,000; human cells with a luciferase reporter of 2A StopGo recoding; control for the full effect not named in the record; Potency, µM (highest dose often 57.9 µM), without a hit: at the highest dose signal change, negative = less light; active = well fitted falling curve with a large enough effect; inconclusive = small, poorly fitted or top-dose-only effect; inactive = no such curve, though single readings can be large or run the other way; tested in HEK293T cells; further: on the % scale 0 is the no-effect control and ±100 the full control effect; nearly all actives have a fitted effect of over 45% in size; luciferase light after 4 h
Cruzain Triton = cruzain (T. cruzi) inhibition with detergent | Potency, µM, inactives show max response, negative = inhibition, hits mostly inhibitors | hit rate 0.43% among 200,000 | P25779 | purified cruzain, Z-FR-AMC fluorescence, 0.01% Triton;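 further: plate controls were neutral wells for no effect and buffer without enzyme for full effect; nearly all actives have a fitted effect of over 40% in size; top concentration of the series not given in the record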
Target sequence (P25779 123-467 limits assumed): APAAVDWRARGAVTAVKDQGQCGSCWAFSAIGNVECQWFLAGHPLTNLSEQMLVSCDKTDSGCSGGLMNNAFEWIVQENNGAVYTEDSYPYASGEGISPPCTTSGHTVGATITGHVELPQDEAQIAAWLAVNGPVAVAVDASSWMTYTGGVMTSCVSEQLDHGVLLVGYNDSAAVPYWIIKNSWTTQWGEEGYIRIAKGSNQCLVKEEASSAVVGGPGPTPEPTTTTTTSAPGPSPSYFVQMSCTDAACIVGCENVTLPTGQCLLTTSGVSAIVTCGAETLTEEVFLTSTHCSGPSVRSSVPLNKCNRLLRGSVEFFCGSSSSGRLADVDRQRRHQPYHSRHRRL
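Compounds were screened in titration against cruzain (1.5 nM) with 0.01% Triton X-100 to counter colloidal aggregation. Activity was the AMC fluorescence increase over 60 s after adding 2 uM Z-FR-AMC at pH 5.5.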
Cruzain noTriton = inhibitors of Trypanosoma cruzi cruzain without detergent; hit rate 2.3% among 200,000; P25779; Potency, µM, for inactives: max response, negative = inhibition, actives largely listed as inhibitors; AID 1476; purified cruzain, Z-FR-AMC fluorescence, no detergent;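 further: plate controls were enzyme without inhibitor for no effect and buffer without enzyme for full effect; nearly all actives have a fitted effect of over 40% in size; top concentration of the series not given in the record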
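Detergent-free condition (0.00005% Triton X-100) in acetate buffer pH 5.5 with DTT. 1.5 nM enzyme and compound were pre-mixed 15 min, then 2 uM Z-FR-AMC substrate added; reaction progress from fluorescence change between first and third reads (60 s).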
SARS PLP yeast = blocks SARS-CoV papain-like protease in a yeast assay; S. cerevisiae expressing SARS-CoV PLpro, growth rescue; control for the full effect not named in the record; Potency, µM (highest dose often 32.9 µM), for the others: at the highest dose activity, positive = growth rescue; hit rate 0.19% among 330,000; active means well fitted rising curve with a large enough effect; inconclusive means small, poorly fitted or top-dose-only effect; inactive means no such curve, though single readings can be large or run the other way; further: 0% is about no effect; nearly all actives have a fitted effect of over 55% in size; growth read by luminescence after 48 h
MARV entry inh = blocks Marburg virus binding to or entry into cells | Marburg virus pseudotyped entry inhibition, cell reporter; control for the full effect not named in the record; about a third of the inactives were read at about 46 µM | Potency, µM (series often up to 37.8 µM), for inactives: at the highest dose activity change, negative = inhibition, hits mostly inhibitors | hit rate 1.8% among 300,000; active = well fitted inhibition curve with a large enough effect; inconclusive = small, poorly fitted or top-dose-only effect, or effect the other way; inactive = flat fitted curve, though single readings scatter; tested in HEK293 cells; about a fifth of its hits are not listed in these tables; further: on the % scale 0 is the no-effect control and ±100 the full control effect; luciferase read-out
RE007 growth inh = less growth of the S. pombe RE007 Vpr strain | S. pombe RE007 Vpr strain, BacTiter-Glo ATP luminescence, 24 h; control for the full effect not named in the record | Potency, µM (titrated, usually from 92.2 µM), without a hit: top-dose activity change, negative = less growth | hit rate 0.21% among 360,000 | AID 651644; active = well fitted falling curve with a large enough effect; inconclusive = small, poorly fitted or top-dose-only effect; inactive = no such curve, though single readings can be large or run the other way;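 further: on the % scale 0 is the no-effect control and ±100 the full control effect; nearly all actives have a fitted effect of over 50% in size; the assay follows cell death caused by Vpr and the record does not say whether a fall means rescue or toxicity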
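Fission yeast strain RE007, carrying one chromosomally integrated HIV-1 vpr copy, was seeded at OD 0.01 in PMG+AL medium with 23 nL pinned compound. After 24 h at 30 °C and 99% humidity, viability was read by BacTiter-Glo luminescence.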
LASV entry inh = blocks Lassa virus binding to or entry into cells. Lassa virus pseudotype entry inhibition, cell reporter; control for the full effect not named in the record. Potency, µM (top dose mostly 37.9 µM), without a hit: at the highest dose activity change, negative = inhibition, most hits filed as inhibitors. hit rate 1.2% among 300,000. AID 540256; active means well fitted inhibition curve with a large enough effect; inconclusive means small, poorly fitted or top-dose-only effect, or effect the other way; inactive means flat fitted curve, though single readings scatter; tested in HEK293 cells; further: on the % scale 0 is the no-effect control and ±100 the full control effect; nearly all actives have a fitted effect of over 50% in size; luciferase read-out
* hit, by the source's call; ? = inconclusive; nt = no result given; & = joins results of further samples; [ ] = remark or other dose. Unless noted, the call rests on the fitted dose curve; in most records, active means well fitted curve in the direction sought with a large enough effect; inconclusive means small, poorly fitted or top-dose-only effect, or another doubt; inactive means no such curve, though single readings can be large; an effect the other way counts as inactive or inconclusive. Potency means the concentration at half of the fitted maximal effect.

Each structure is followed by: RE007 growth inh, MARV entry inh, NS1 inh, LASV entry inh, SARS PLP yeast, StopGo reporter, Cruzain Triton, Cruzain noTriton
CCC(c1nnnn1CCc1ccccc1)N1CCN(C(=O)c2ccco2)CC1 (stereo not drawn)
  16%, -2%, -10%, 0%, 3%, -2%, 2.8%, -1%
NS(=O)(=O)c1ccc(CCNc2nc3c(-c4cccc(F)c4)nnn3c3ccccc23)cc1
  ?, 1%, 0%, ?, 8%, -22%, 1.5%, 20µM*
CSc1nc(-c2ccco2)nn1S(=O)(=O)c1ccccc1
  nt, 0%, 3%[9.22 µM], nt, -5%, nt, 0.8%, -5%
COc1cccc(CNC(=O)Cc2c(C)c3c(cc(C)c4c(C)c(C)oc43)oc2=O)c1
  nt, 13%[46.1 µM], nt, 14%[46.1 µM], nt, -14%, 0.8%, -2%
COc1ccc(NC(=O)Nc2cccc(-c3cn4cccnc4n3)c2)cc1
  nt, ?, nt, 1%[46.1 µM], nt, -25%, 1.8%, 9%
CCONC(=O)Nc1ccccc1[N+](=O)[O-]
  ?, 16%, -2%, 1%, -28%, -15%, -1.2%, -2%
Cc1[nH]n(-c2ccc([N+](=O)[O-])cc2)c(=O)c1C=NCCc1c[nH]c2ccccc12
  ?, 16%, 12%, -6%, -11%, -5%, -6.3%, -7%
CCn1c(C(=O)Nc2ccccc2C(=O)OC)cc2sc(Cl)cc21
  nt, 8%[46.1 µM], nt, nt, nt, -27%, 1.5%, 6%
O=C(CN1CCCCC1)c1c[nH]c2ccccc12
  -2%, nt, 9%, nt, 3%, -5%, nt, nt
Cc1ccc(C(=O)NCCCn2ccnc2)cc1[N+](=O)[O-]
  -6%, 6%, 7%, -3%, -1%, 18%, 2.3%, 1%
CCC(C)c1ccc(S(=O)(=O)N2CCN(C(=O)COc3ccc4c(C)cc(=O)oc4c3)CC2)cc1 (stereo not drawn)
  6%, ?, -57%, -29%, 22%, -27%, -1.0%, -1%
CNC(=O)Nc1cc(C(C)(C)C)no1
  1%, 10%, -7%, 17%, -25%, -1%, 0.5%, 0%
NC(=O)C12CCCC(Br)(CCC1)C2
  -3%, ?, 2%, 9%[46.1 µM], 0%, -12%, nt, nt
CC/C(O)=C1\C(=O)CC(c2ccccc2)CC1=NC(C)C (stereo not drawn)
  -10%, 4%, 18%, 1%, -12%, -22%, -2.9%, -12%
CCc1ccc(NC(=O)c2cc(S(=O)(=O)NC3CCCCCC3)ccc2F)cc1
  nt, nt, nt, -18%[46.1 µM], nt, 25%, 1.0%, 2%
O=C1NC(c2ccc(Cl)cc2Cl)Oc2ccccc21 (stereo not drawn)
  15%, ?, ?, 11%[46.1 µM], 19%, -5%, nt, nt
CC(C)OC(=O)Cn1nnc(-c2ccccc2)n1
  ?, ?, -3%, -1%, 1%, 22%, -0.2%, -7%
CCN(C(=O)c1ccc(Br)cc1)c1ccccc1
  3%, 26%[46.1 µM], -6%, 10%, -1%, -15%, nt, nt
c1csc(-c2csc(-c3cccs3)n2)c1
  -25%, 28%, -21%, ?, ?, 69%[activator], -2.5%, -14%
COc1ccc(C(=O)/C=C/c2ccc(OC)c(O)c2)c(F)c1
  -17%, ?, -28%, -27%, -91%, 0%, -15%, -4%
CCOC(=O)CNC(=O)N1CCc2ccc(NC(=O)c3ccccc3OC)cc2C1
  4%, ?, -6%, 0%[46.1 µM], -2%, 3%, nt, nt
CC1CN(C(=O)c2cccc(S(=O)(=O)Nc3cc(Cl)ccc3Cl)c2)CC(C)O1 (stereo not drawn)
  5%, 19%[46.1 µM], -2%, -15%, 0%, 16%, nt, nt
O=C(CC1C(=O)NCCN1CC1CCCCC1)NC1(c2ccccc2)CC1 (stereo not drawn)
  -11%, -22%[46.1 µM], -1%, -15%[46.1 µM], 1%, 30%, nt, nt
Cc1ccc(C)c(N(CC(=O)NC(C)(C)C)C(=O)CNC(=O)c2cccs2)c1
  9%, 10%[46.1 µM], -2%, -29%[46.1 µM], 1%, 23%, nt, nt
CC(OC(=O)c1nc(-c2ccccc2)n(-c2ccccc2)n1)C(=O)Nc1cc(Cl)cc(Cl)c1 (stereo not drawn)
  -5%, ?, ?, 0%, -33%, -24%, 0.9%, ?
COc1ccc(C(=O)NC2CCCc3ccccc32)cc1Br (stereo not drawn)
  -15%, ?, -49%, -25%, -7%, 1%, nt, nt
CCC(C)NC(=O)Cn1cnc2sc(C)cc2c1=O (stereo not drawn)
  -4%, 13%[46.1 µM], 8%, -2%, -6%, -20%, -4.6%, -1%
Cc1ccc2oc(C(=O)N(Cc3ccc(N(C)C)cc3)C3CCS(=O)(=O)C3)c(C)c2c1 (stereo not drawn)
  -7%, ?, -15%, ?, -10%, -18%, nt, nt
O=C(c1cccs1)N1N=C(c2ccccc2)CC1c1ccc(O)cc1 (stereo not drawn)
  -20%, -20%, 0%, ?, -8%, -12%, -11%, 2%
CN(C(=O)CSc1nnc(COc2ccccc2F)n1N)C1CCS(=O)(=O)C1 (stereo not drawn)
  -1%, 4%[46.1 µM], nt, 28%, -4%, -13%, nt, nt

(more compounds)
Each structure is followed by: RE007 growth inh, MARV entry inh, NS1 inh, LASV entry inh, SARS PLP yeast, StopGo reporter, Cruzain Triton, Cruzain noTriton
COc1cccc(CN(C)C(=O)C2CSC3(C)CCC(=O)N23)c1OC (stereo not drawn)
  -16%, -4%, nt, 1%, -2%, -2%, nt, nt
COc1cccc(N2CCN(C(=O)c3c(C)oc4ncnc(N5CCOCC5)c34)CC2)c1
  nt, nt, nt, 18%[46.1 µM], nt, -12%, -1.7%, -11%
C=Cc1ccc(Cn2c(C(=O)O)c(CNCc3cc(OC)ccc3OC)c3ccc(C)cc32)cc1
  nt, nt, nt, -3%[46.1 µM], nt, 0%, -6.2%, ?
COc1cc(OC)c(C2C(C#N)=C(N)Oc3cc(C)n(CCCN4CCOCC4)c(=O)c32)cc1OC (stereo not drawn)
  -7%, 3%&3%, 2%, 8%, -5%, -3%, 0.7%, 2%
COc1ccc(C(=O)Nc2cccc3nc(C)ccc23)c(OC)c1
  -11%, ?, -28%, -5%, -5%, 1%, nt, nt
CCS(=O)(=O)N1Cc2ccccc2CC1C(=O)Nc1ccc(F)cc1 (stereo not drawn)
  8%, nt, -12%, nt, 0%, 32%[activator], nt, nt
O=C(CN1C(=O)CSC1=O)Nc1ccccc1N1CCOCC1
  22%, 11%[46.1 µM], 6%, 5%, -6%, 5%, 2.5%, -5%
Cc1cnc(C(=O)OCC(=O)Nc2ccc(C)c(S(=O)(=O)N3CCCCCC3)c2)cn1
  -3%, -11%[46.1 µM], -7%, ?, 0%, -16%, nt, nt
CC1=C(C(=O)N2CCC3(CC2)OCCO3)C2(CCC(C)CC2)OC1=O (stereo not drawn)
  18%, 22%, 2%, -10%, 5%, -21%, 3.4%, -4%
COc1ccc(S(=O)(=O)n2nc(OC(=O)c3ccncc3)cc2N)cc1
  10%, nt, -3%, nt, 1%, -4%, nt, nt
Cc1ccc(C(=O)n2c(=S)nc3ccccn32)cc1
  nt, nt, -3%, nt, 5%, nt, -1.4%, -10%
Cc1ccc(N=CC=C2OC(C)(C)C(C)(C)O2)cc1
  0%, ?, 11%, ?, 5%, 6%, -7.0%, -7%
CCC(=O)c1ccc2ncccc2c1
  -6%, 6%, 10%, 18%, 8%, 31%[activator], -2.3%, 7%
CCc1cc2c(COC(=O)c3cccc(NS(C)(=O)=O)c3)cc(=O)oc2cc1O
  10%, ?, 9%, ?, -13%, ?, nt, nt
Cc1cc(SCC(=O)N(C)c2c(N)n(Cc3ccccc3)c(=O)[nH]c2=O)nc2ccccc12
  -1%, nt, 6%, nt, 1%, -8%, nt, nt
O=C(O)c1ccccc1S(=O)CCO (stereo not drawn)
  10%, 8%, 0%, -1%, 1%, -26%, 5.1%, -7%
CCc1ccc2nc(SCC(=O)N(CC)CC)c(C#N)cc2c1
  15%, ?, -16%, -16%, -2%, -9%, -5.1%, -3%
Cc1nc2ccccc2c(=O)n1NC(=O)c1ccc(Cl)c([N+](=O)[O-])c1
  9%, nt, 6%, nt, -2%, -29%, nt, nt
COc1cccc(-n2c(CNc3ccc(F)cc3)nnc2SCC(N)=O)c1
  7%, 1%, 1%, 10%, 10%, nt, 5.1%, 0%
O=C(Nc1ccc(Cl)cc1)Nc1ccc2c(c1)N1CCN=C1S2
  6%, -22%, -101%, ?, -9%, 0%, ?, 32µM*
Nc1nccnc1C(=O)OCC(=O)NCCc1ccc(S(N)(=O)=O)cc1
  0%, ?, nt, 1%, 3%, -6%, nt, nt
CC(C)Cn1c(=O)c(C(=O)Nc2ccccc2S(N)(=O)=O)c(O)c2ccccc21
  -23%, -28%, 15%, -2%, -2%, -6%, -4.6%, ?
CC1=NN(c2ccccc2C)C(=O)C1
  2%, 11%[46.1 µM], nt, 0%[46.1 µM], nt, -10%, nt, nt
Cc1ccc(NC(=O)c2ccc3nc[nH]c3c2)c(O)c1
  6%, ?, nt, 19%, 1%, 67%[activator], nt, nt
OCCN1CCN(c2nnc(-c3ccccc3)c3ccccc23)CC1
  15%, nt, -1%, nt, 1%, -32%, nt, nt
Cc1ccccc1C(=O)Nc1nc2nc(-c3ccccc3)cc(=O)n2[nH]1
  nt, 11%[46.1 µM], nt, 16%[46.1 µM], nt, -18%, -1.2%, 0%
O=C(CSc1nnc2ccc3ccccc3n12)Nc1ccccc1Cl
  nt, 4%[46.1 µM], nt, 11%[46.1 µM], nt, 35%[activator], -4.3%, -3%
O=C1c2ccccc2CN1CCNS(=O)(=O)c1ccc(Cl)cc1
  -3%, 4%, -1%, -1%, 6%, 8%, -0.2%, 6%
Cc1ccccc1CN1CCC(CNC(=O)Nc2ccc(F)cc2F)CC1
  -6%, ?, 3%, -2%[46.1 µM], -2%, 29%, nt, nt
NC(=O)c1cc(C(=O)Cc2ccc(Cl)cc2)c[nH]1
  1%, 21%, 3%, 3%, 1%, 49%[activator], nt, nt
